Screening data deposited in PubChem BioAssay by National Center for Advancing Translational Sciences (NCATS).
Pin1 inhibitor: qHTS Assay to Find Inhibitors of Pin1 | Potency, µM (titrated, usually from 115 µM), inactives show top-dose activity, negative = inhibition, hits mostly inhibitors | Pin1 FP peptide displacement, HiFluor488, 10 min | actives 0.009% (n = 390,000) | Peptidyl-prolyl cis-trans isomerase NIMA-interacting 1 (Homo sapiens), Q13526 | AID 504891, 2011; active = well fitted inhibition curve with a large enough effect in the polarisation, with a control signal flat, not every such curve was filed as active; inconclusive = small, poorly fitted or top-dose-only effect, or effect the other way, or a change in a side signal; inactive = no such curve, though single readings can be large or run the other way; the % refers to the polarisation; also: potency is read from the fitted curve at half-maximal effect; % is scaled to controls: 0 for no effect and ±100 for the full control effect
Target sequence (Q13526 whole entry, looked up): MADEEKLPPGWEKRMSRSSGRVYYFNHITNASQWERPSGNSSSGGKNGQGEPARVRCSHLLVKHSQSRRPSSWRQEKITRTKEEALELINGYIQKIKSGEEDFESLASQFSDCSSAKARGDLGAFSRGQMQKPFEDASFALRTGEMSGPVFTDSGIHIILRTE
G9a inh: qHTS Assay for Inhibitors of Histone Lysine Methyltransferase G9a. Histone-lysine N-methyltransferase EHMT2 (Homo sapiens), Q96KQ7. Potency, µM (top dose mostly 102 µM), for the others: at the top dose activity, negative = inhibition, actives largely listed as inhibitors. actives 8.8% (n = 350,000). G9a H3K9 monomethylation, AlphaScreen, 2 h; also: potency is read from the fitted curve at half-maximal effect; % is scaled to controls: 0 for no effect and ±100 for the full control effect; nearly all actives have a fitted effect of over 75% in size
Target sequence (Q96KQ7 913-1193 limits assumed): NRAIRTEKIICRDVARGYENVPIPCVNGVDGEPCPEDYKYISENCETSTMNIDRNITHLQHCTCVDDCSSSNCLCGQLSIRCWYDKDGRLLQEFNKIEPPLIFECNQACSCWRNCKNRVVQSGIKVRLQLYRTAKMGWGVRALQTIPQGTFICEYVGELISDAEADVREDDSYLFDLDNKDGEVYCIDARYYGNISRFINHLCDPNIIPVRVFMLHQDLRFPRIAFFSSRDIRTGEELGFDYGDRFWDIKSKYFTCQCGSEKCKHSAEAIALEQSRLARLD
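G9a (20 nM) was preincubated 15 min with compound, then reacted 2 h at room temperature with 500 nM biotin-H3K9 peptide and 20 µM SAM. Monomethyl-H3K9 detected by AlphaScreen using anti-H3K9me1 antibody.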
PI4K2A inh: qHTS for small molecular inhibitors of PI4K2A; Phosphatidylinositol 4-kinase type 2-alpha (Homo sapiens), Q9BTU6; purified PI4K2A, ADP-Glo luminescence, 1 h; active compounds read low; actives 0.13% (n = 420,000); activity change, negative = inhibition, % at 76.9 µM; in the data active = activity change below about -50%; inconclusive = mostly about -30% to -49%;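 also: -100% = wells without enzyme as full effect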
Target sequence (Q9BTU6 whole entry, looked up): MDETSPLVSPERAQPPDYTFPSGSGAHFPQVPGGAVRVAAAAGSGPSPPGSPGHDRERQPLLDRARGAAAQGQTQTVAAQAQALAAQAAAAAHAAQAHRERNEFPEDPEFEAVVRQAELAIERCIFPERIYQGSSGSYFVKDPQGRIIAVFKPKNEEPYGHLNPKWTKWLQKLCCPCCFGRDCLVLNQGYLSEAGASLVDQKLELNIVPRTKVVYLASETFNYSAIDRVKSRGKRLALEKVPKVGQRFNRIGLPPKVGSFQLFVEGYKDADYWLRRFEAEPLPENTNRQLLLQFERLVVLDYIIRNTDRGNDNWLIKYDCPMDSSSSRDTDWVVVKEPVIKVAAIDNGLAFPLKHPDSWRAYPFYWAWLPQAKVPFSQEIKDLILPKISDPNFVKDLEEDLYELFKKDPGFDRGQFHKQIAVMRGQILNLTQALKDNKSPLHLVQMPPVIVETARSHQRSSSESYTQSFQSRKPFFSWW
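PI4K2A activity was measured by ADP-Glo luminescence: enzyme (4 ug/mL stock) and phosphatidylinositol (1.2 mM stock) in Tris pH 7.5/MgCl2/EGTA/Triton X-100 buffer were reacted with ATP (300 microM stock) for one hour at ambient temperature.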
GLS inh: qHTS for Inhibitors of Glutaminase (GLS); Glutaminase kidney isoform, mitochondrial (Homo sapiens), O94925; GLS enzymatic activity, qHTS titration; Potency, µM (highest dose often 45.5 µM), inactives show top-dose activity change, negative = inhibition, most hits filed as inhibitors; actives 0.21% (n = 410,000); AID 624170, 2012; also: potency is read from the fitted curve at half-maximal effect; % is scaled to controls: 0 for no effect and ±100 for the full control effect
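Assay buffer: 45 mM KH2PO4 pH 8.2, 0.02% Tween-20. hKGA acts on L-glutamine (1 mM solution added); product glutamate is reported by an oxidase/peroxidase Amplex Red coupling, with fluorescence taken at baseline and 30 min.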
PGK inhibitor: qHTS Assay to Find Inhibitors of Phosphoglycerate Kinase; Potency, µM (doses to about 57.5 µM), without a hit: top-dose activity change, negative = inhibition, hits mostly inhibitors; PGK/GAPDH coupled, Kinase-Glo luminescence, 60 min; actives 0.043% (n = 380,000); also: potency is read from the fitted curve at half-maximal effect; % is scaled to controls: 0 for no effect and ±100 for the full control effect; nearly all actives have a fitted effect of over 60% in size
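Recombinant glycosomal PGK reaction used 1,3-bisphosphoglycerate generated in-well by GAPDH (100nM final) in 100mM TEA pH 7.6, 5mM MgCl2, 0.01% Tween-20. After 60 minutes at room temperature, ATP was read by Kinase-Glo Plus luminescence end-point.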
ERG Ets-DNA blk: qHTS for Small Molecule Inhibitors of the ERG Ets/DNA interaction | Transcriptional regulator ERG (Homo sapiens), P11308 | fluorescence polarization, His-ERG Ets domain / labelled DNA | Potency, µM (doses to about 76.9 µM), inactives show at the top dose FP activity, negative = inhibition, actives largely listed as inhibitors | actives 0.028% (n = 370,000) | AID 624246, 2012; active = well fitted inhibition curve with a large enough effect in the polarisation, with a control signal flat; inconclusive = small, poorly fitted or top-dose-only effect, or effect the other way, or a change in a side signal; inactive = no such curve, though single readings can be large or run the other way; the % refers to the polarisation;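 also: polarization taken with two DNA probes labelled with fluorescein and Texas red; potency is read from the fitted curve at half-maximal effect; % of control where 0% means no effect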
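His-tagged ERG Ets domain (1 uM in the protein solution; 300mM KCl, 50mM Tris-HCl, 1mM EDTA, 1mM DTT, pH 7.5) received compound, then a probe mix of 5 nM fluorescein-DNA and 100nM Texas-615-DNA. Fluorescence polarization was read for both dyes.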
An asterisk follows results filed as active; i = inactive; ? = inconclusive; . = not tested or not shown; [ ] = remark or other dose. Unless noted, calls follow the shape of the dose curve; as a rule, active = well fitted curve in the direction sought with a large enough effect; inconclusive = small, poorly fitted or top-dose-only effect, or another doubt; inactive = no such curve, though single readings can be large; an effect the other way counts as inactive or inconclusive.

SMILES	Pin1 inhibitor	G9a inh	PI4K2A inh	GLS inh	PGK inhibitor	ERG Ets-DNA blk
COc1cc(OC)c(C2CC(=O)Nc3ccc4ccccc4c32)cc1OC (stereo not drawn)	1%	?	-2	2%	-5%	5%
O=C(CNCc1cccs1)NC12CC3CC(CC(C3)C1)C2	3%	13µM*	11	6%	-10%	-7%
COCc1c(C(=O)NCCc2ccc(OC(F)F)cc2)oc2ccccc12	3%	.	2	-6%	-8%	-2%
O=C(c1nc(-c2ccc(Cl)cc2)n2c1CCCCC2)N1CCN(c2ccccc2)CC1	0%	?	-9	11%	2%	0%
CCCOc1ccc(OCCCCNC(C)CC)cc1 (stereo not drawn)	-3%	2.5µM*	9	13%	i	5%
O=C(CN1CCOCC1)N1CCCc2ccccc21	-5%	?	3	0%	-9%	-2%
CCOCCCNC(=S)N1CCN(Cc2ccc3c(c2)OCO3)CC1	-4%	.	3	2%	4%	-4%
COc1cc(OC)c(OC)cc1CN(C)CCc1ccccn1	-8%	?	14	8%	i	-6%
CC(C)COc1cccc(C(=O)Nc2ccc(N3CCOCC3)cc2N2CCOCC2)c1	-11%	7.1µM*	0	18%	-10%	-3%
CS(=O)(=O)c1ccc(-c2nnc(NC(=O)c3ccc4c(c3)OCCO4)o2)cc1	0%	45%[59 µM]	5	-20%	-10%	3%
COc1ccccc1N1CCN(Cc2cccc(OC)c2OC)CC1	6%	?	6	.	4%	-4%
Cn1c(-c2ccccc2)cnc1NCc1ccc(-c2ccccc2)cc1	0%	11µM*	-7	2%	-4%	-7%
Cc1cccc(N2CCN(Cc3ccc([N+](=O)[O-])o3)CC2)c1C	-16%	25µM*	-7	4%	-1%	15%
COc1ccc(CN2CCN(CCSc3ccc(C)cc3)CC2)c(OC)c1OC	-10%	8.9µM*	2	6%	-9%	5%
Clc1ccc(SCCOCCN2CCCCCC2)cc1	1%	14%[0.501 µM]	-2	13%	-7%	-5%
CN(C)S(=O)(=O)c1cc(NC(=O)CNCc2ccccc2)ccc1Cl	3%	2.2µM*	2	1%	9%	4%
O=C(CCN1C(=O)C2C3C=CC(C4CC34)C2C1=O)Oc1cccc2cccnc12 (stereo not drawn)	0%	20%[59 µM]	1	-27%	i	3%
CCCN1CCN(CC(O)COC(c2ccc(OC)cc2)c2ccc(OC)cc2)CC1 (stereo not drawn)	-8%	2.8µM*	-4	-3%	-1%	15%
CC(C)NC(=S)NC(c1ccccc1)(c1ccccc1)c1ccccc1	1%	.	2	6%	i	2%
OCCN(Cc1ccccc1)Cc1ccccc1Cl	-2%	3.5µM*	10	5%	-10%	9%
CC1CCN(c2cc(N3CCOCC3)c([N+](=O)[O-])cc2F)CC1	?	14µM*	-2	-4%	0%	-2%
COc1cc(CN2CCN(C(=O)CC(C)C)CC2)cc(OC)c1O	-12%	4µM*	0	-6%	6%	.
Brc1ccc(Oc2nsnc2N2CCOCC2)cc1	-5%	40µM*	-3	-8%	i	0%
COc1cccc(CC2(CO)CCCN(C/C=C/c3ccccc3OC)C2)c1 (stereo not drawn)	-1%	.	-5	1%	-8%	-3%
COc1cnc(-c2ccccn2)nc1Sc1ccccc1	-1%	?	-21	6%	-10%	6%

Compounds shown so far containing a furan ring, fused or not (2):
SMILES	Pin1 inhibitor	G9a inh	PI4K2A inh	GLS inh	PGK inhibitor	ERG Ets-DNA blk
COCc1c(C(=O)NCCc2ccc(OC(F)F)cc2)oc2ccccc12	3%	.	2	-6%	-8%	-2%
Cc1cccc(N2CCN(Cc3ccc([N+](=O)[O-])o3)CC2)c1C	-16%	25µM*	-7	4%	-1%	15%

(more compounds)
SMILES	Pin1 inhibitor	G9a inh	PI4K2A inh	GLS inh	PGK inhibitor	ERG Ets-DNA blk
CCOC(=O)C/C(C)=N\Nc1ccc([N+](=O)[O-])cc1[N+](=O)[O-]	6%	?	2	-5%	-4%	-3%
COc1ccc(CN2CCN(C(=O)c3cccc4ccccc34)CC2)c(OC)c1OC	-2%	.	0	-9%	-3%	-4%
O=[N+]([O-])c1ccccc1SN(Cc1ccccc1)c1ccccn1	-6%	20µM*	5	1%	-7%	-1%
CCCCn1c(SCC(=O)NCc2ccco2)nnc1-c1ccoc1C	?	9%[12.7 µM]	-9	?	-24%	-12%
Cc1cc(O)c(C(C)C)cc1N=Cc1ccccc1[N+](=O)[O-]	-7%	.	-4	0%	-8%	-2%
Cc1noc(/C=C/c2ccc(-c3ccccc3Cl)o2)c1[N+](=O)[O-]	?	?	-2	-15%	?	-9%
c1ccc(-c2ccc(CN3CCN(c4ncccn4)CC3)cc2)cc1	5%	2.8µM*	0	-2%	-4%	1%
COc1ccc(Nc2nc(N)nc(CN3CCN(c4ccccn4)CC3)n2)cc1	4%	-50%[59 µM]	0	9%	-2%	13%
CCn1c2ccccc2c2cc(NC(=O)CNCc3ccccc3OC)ccc21	0%	14µM*	-4	4%	-8%	-9%
O=C(CSc1ccc2nnc(-c3ccccn3)n2n1)NCc1ccco1	2%	?	-12	-23%	-5%	3%
CC(C)(CN1CCC(Cc2ccccc2)CC1)NS(=O)(=O)c1ccccc1	4%	13µM*	6	5%	-4%	-2%
CCOc1ccccc1CN1CCC(N2CCOCC2)CC1	-3%	?	-3	4%	.	2%
COc1ccc(-c2ocnc2C(=O)Nc2ccc(N3CCOCC3)cc2N2CCOCC2)cc1OC	-1%	?	3	4%	-3%	-8%
COC(=O)c1sc2cc([N+](=O)[O-])cc(SCC(C)C)c2c1N	?	40µM*	3	6%	8%	5%
CN(C)CCOc1ccccc1C(C)(C)C	-3%	?	4	-2%	2%	-4%
COc1ccc(/C(O)=C2/C(=O)C(=O)N(CCN3CCOCC3)C2c2ccccn2)cc1OC (stereo not drawn)	-3%	?	0	-4%	-18%	0%
COc1cccc(C(=O)NC(=S)Nc2nnn(C)n2)c1	-3%	2µM*	-2	20%	-4%	7%
O=C(NC(=S)Nc1ccccc1N1CCCC1)c1cccs1	-8%	16µM*	-7	10%	i	-4%
N#Cc1nc(COc2ccccc2F)oc1N1CCCCCC1	?	?	7	13%	-4%	-5%
CCCN(CC)c1ncnc2[nH]ncc12	-3%	.	-1	2%	-5%	-15%
COc1ccccc1NC(=O)c1ccc(NC(=O)CN2CCCCC2)cc1	3%	.	4	9%	0%	-9%
Nc1nc(-c2ccccc2)cs1	-4%	?	-1	0%	-8%	.
CC(=C/c1ccccc1)/C=N/N1CCN(Cc2ccc(C)cc2)CC1	1%	?	12	-4%	?	17%
O=[N+]([O-])c1cc(/C=N/OCc2c(Cl)cccc2Cl)ccc1N1CCOCC1	1%	?	0	-18%	-2%	-3%
CC(C)NCCCOc1ccc(C(C)(C)c2ccccc2)cc1	-3%	?	8	0%	-1%	1%

Entries of single compounds, looked up by structure.
`COc1ccc(CN2CCN(C(=O)c3cccc4ccccc34)CC2)c(OC)c1OC` across the screens: Pin1 inhibitor = -2%; G9a inh = .; PI4K2A inh = 0; GLS inh = -9%; PGK inhibitor = -3%; ERG Ets-DNA blk = -4%
`CN(C)CCOc1ccccc1C(C)(C)C` across the screens: Pin1 inhibitor = -3%; G9a inh = ?; PI4K2A inh = 4; GLS inh = -2%; PGK inhibitor = 2%; ERG Ets-DNA blk = -4%

The listing continues:
SMILES	Pin1 inhibitor	G9a inh	PI4K2A inh	GLS inh	PGK inhibitor	ERG Ets-DNA blk
COc1ccc(CN=Cc2c(O)[nH]c3ccccc23)cc1	3%	-42%	-1	-5%	i	-1%
CN(C)c1cc(NC(=O)CNC(C)(C)C)c2ccccc2n1	-10%	.	5	-4%	i	7%
Oc1ccc(N2CCN(C(c3cccs3)c3nnnn3CCc3ccccc3)CC2)cc1 (stereo not drawn)	?	?	-6	63%[activator]	-2%	3%
O=[N+]([O-])c1cccc(CN2CCN(Cc3ccco3)CC2)c1	-10%	7.9µM*	-3	1%	-4%	3%
CCOC(=O)c1cnc(SSc2ncc(C(=O)OCC)c(N)n2)nc1N	-7%	-6%[0.501 µM]	-8	20%	3%	10%
O=C(CN1CCN(C(=O)c2ccco2)CC1)Nc1c2c(nc3c1CCC3)CCCC2	-12%	6.3µM*	-2	6%	-7%	-2%
CCOC(=O)c1c(C)[nH]c(C(=O)CN2CCN(CC)CC2)c1C	-15%	.	11	-1%	-10%	5%
CC1CCCCN1CC(=O)NC(c1ccccc1)c1ccccc1 (stereo not drawn)	-6%	.	-1	0%	5%	-5%
Cc1ccc(NC(=O)C(NC2CCCc3ccccc32)c2ccccc2)cc1Cl (stereo not drawn)	11%	7.1µM*	5	0%	-8%	-1%
Cc1ccc(CN(CC(O)COc2cccc3[nH]cc(C)c23)C(C)(C)C)cc1 (stereo not drawn)	-2%	50µM*	-3	10%	.	-6%
COc1ccc(C2=C(N3CCN(c4cc(C)ccc4C)CC3)c3ccccc3C2=O)cc1	-1%	5µM*	-1	3%	-6%	7%
Cc1ccc(Cl)cc1NC(=O)CNCC(c1ccccc1)N(C)C (stereo not drawn)	5%	25µM*	9	14%	8%	-12%
CCCCOc1ccc(C2=NC(c3ccncc3)=Nc3ccc(OCC)cc3N2)cc1	1%	?	4	-4%	.	1%
c1ccc(CSc2nnc(-c3ccccn3)n2-c2ccccc2)cc1	2%	2%[59 µM]	5	8%	-8%	9%
CN(Cc1cccc(Cl)c1Cl)CC(O)COc1ccccc1 (stereo not drawn)	-16%	-29%[2.33 µM]	1	2%	-13%	1%

Reprinted at random: five compounds from above
SMILES	Pin1 inhibitor	G9a inh	PI4K2A inh	GLS inh	PGK inhibitor	ERG Ets-DNA blk
CCCCOc1ccc(C2=NC(c3ccncc3)=Nc3ccc(OCC)cc3N2)cc1	1%	?	4	-4%	.	1%
O=C(CN1CCN(C(=O)c2ccco2)CC1)Nc1c2c(nc3c1CCC3)CCCC2	-12%	6.3µM*	-2	6%	-7%	-2%
COc1ccc(C2=C(N3CCN(c4cc(C)ccc4C)CC3)c3ccccc3C2=O)cc1	-1%	5µM*	-1	3%	-6%	7%
Oc1ccc(N2CCN(C(c3cccs3)c3nnnn3CCc3ccccc3)CC2)cc1 (stereo not drawn)	?	?	-6	63%[activator]	-2%	3%
CC1CCCCN1CC(=O)NC(c1ccccc1)c1ccccc1 (stereo not drawn)	-6%	.	-1	0%	5%	-5%

Some of the compounds tested; rates above refer to the full screens.
